High-throughput results deposited in PubChem by several laboratories.
Mtb hypoxia rep: inhibitors of hypoxia-regulated fluorescent reporter in Mycobacterium tuberculosis. 300,000 tested, 0.1% active. M. tuberculosis hypoxia-regulated fluorescent reporter, fluorescence. fluorescence inhibition, % (no concentration beside the values). AID 1159583;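 active = 35 to 45% if threefold the growth effect, above 45% if 1.5-fold the growth effect; inactive = the rest, general growth blockers included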;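 also: wells of about 50 µL received 100 nL stock; 0% = vehicle wells and 100% = reference inhibitor wells; whole bacteria with a GFP reporter of the hypoxia response; strong numbers were not always called active; many hits fall short of the cut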
Sa RN4220 lethal: kills Staphylococcus aureus RN4220; S. aureus RN4220 growth, OD600, 16 h; inhibition, % (concentration not given with the values); 330,000 tested, 0.33% active;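 active = z-score of -3 or lower and OD600 up to 0.18 on both plates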;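 also: plate controls were untreated cells for no effect and reference antibiotic for full effect; stock transfer was 100 nL into about 80 µL; one replicate is shown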
BJeLR viability: kills HRASV12-expressing BJeLR cells. BJeLR (HRASV12) viability, CellTiter-Glo ATP luminescence, 48 h; reference of the scale not given here. inhibition, % (test concentration not listed). 300,000 tested, 0.17% active;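 active = replicate mean above 50%; inconclusive = above 50% but judged a plate artefact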;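 also: 50 nL library stock added to about 25 µL; numbers are from one replicate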
Bead autofluor: compound fluorescence in toxin protease inhibitor counterscreen; compound autofluorescence counterscreen, microsphere flow cytometry; stronger effect = higher value; fluorescence intensity (no concentration beside the values); 360,000 tested, 3.1% active; AID 624483;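 active = at least 3 SD above the mean of all compounds, about 16000 in these data; inconclusive = too few beads counted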;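 also: 100 nL of 1 mM stock went into each well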
ugtP null kill: growth inhibition of S. aureus ugtP deletion strain; S. aureus RN4220 ugtP deletion, OD600 growth, 16 h; some inactives read as strong as hits; growth inhibition, % (test concentration not listed); 330,000 tested, 0.54% active; AID 1259309;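 active = z-score under -3 and OD600 up to 0.15 on both plates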;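 also: plate controls were untreated wells for no effect and antibiotic for full effect; wells of about 80 µL received 100 nL stock; the first replicate is given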
PrP 5UTR inh: inhibition of PrP 5' UTR reporter expression; cell-based PrP 5' UTR mRNA reporter, plate reader; inhibition, % (concentration not given with the values); 340,000 tested, 0.35% active; AID 488862;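 active = every replicate at 50% or more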;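 also: 0 = median of the neutral control wells; tested in H4 reporter cells; numbers are from one replicate; inactives centre near -14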
Mtb hypoxia rep growth: also measured in Mtb hypoxia rep; calls as there; growth inhibition, %; measured here: M. tuberculosis growth (absorbance);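 0% = vehicle and 100% = reference antibiotic; read after six days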
The depositor's hits bear a star; ? = inconclusive; / = not tested or not shown; & = joins results of further samples.

SMILES	Mtb hypoxia rep	Mtb hypoxia rep growth	Sa RN4220 lethal	BJeLR viability	Bead autofluor	ugtP null kill	PrP 5UTR inh
CC1CCC(NC(=O)c2ccc3snnc3c2)CC1 (stereo not drawn)	/	/	1.2	7	4519	2	-61
CC(=O)c1c(C)nn(CC(=O)NC2CCCN(Cc3ccc(CC(C)C)cc3)C2)c1C (stereo not drawn)	1	-2	1.5	-4	6957	4	4
Cn1c(C(=O)NCC2CCCO2)cc2c(=O)[nH]c3ccccc3c21 (stereo not drawn)	-5	9	-1.6	1	10026	-9	4
CCOc1ccc2nc(NC(=O)C3CCCN(S(=O)(=O)c4cccs4)C3)sc2c1 (stereo not drawn)	/	/	-5.3	-2	2205	0	-16
O=C(C[n+]1cccc(O)c1)Nc1ccc(Br)cc1	-4	8	0.5	12	5023	3	-24
CCN(CC)CC(=O)Nc1sc(C)c(C)c1C(=O)c1ccc(C)cc1	-3	14	23	-1	4980	0	-12
Cc1cccc(C)c1OCc1cc(C(=O)N2CCNC(=O)C2)no1	7	7	1.5	5	/	8	-3
COc1cc(NC(=O)c2ccco2)c(OC)cc1NC(=O)Nc1cccc(Cl)c1	3	2	-7.9	-6	10412	17	-16
O=C(CS(=O)CC(=O)N(c1ccccc1)C(C(=O)NC1CCCC1)c1cccs1)Nc1ccc(F)cc1 (stereo not drawn)	/	/	/	-18	15134	/	-4
CC(=O)Nc1ccccc1C(=O)N1CCc2ccccc21	/	/	9.4	-3	3857	4	-14
Cn1c(COc2ccccc2)nnc1SCc1cc(=O)[nH]c2ccccc12	6	14	3.4	0	4216	3	-15
CSc1nnc(-c2ccccc2N=Cc2c(C)[nH]n(-c3ccc4ccccc4c3)c2=O)c(=O)[nH]1	/	/	3.5	18	2602	4	-20
Cc1cc(C)c(NC(=O)CNC(=O)CN2C(=O)NC3(CCCc4ccccc43)C2=O)c(C)c1 (stereo not drawn)	6	4	0.2	-14	?	2	-7
O=C(CCC(=O)Nc1ccc(F)cc1)NN=Cc1cccnc1	6	-1	0.7	/	/	3	/
CS(=O)(=O)n1nc(-c2ccccc2)nc1N	8	11	3.8	-5	9513	3	-14
CCn1c(SC/C=C/c2ccccc2)nnc1-c1cccs1	8	10	18	3	20863*	7	-11
O=C(Nc1nccs1)C1=COCCO1	-5	3	3.7	/	3628	-1	-35
Cc1ccc(O)c(-c2cc(C(=O)NCc3ccccc3)[nH]n2)c1	13	3	1.3	2	7760	8	-66
O=C(Nc1ccccc1Cl)C1Cc2ccccc2O/C1=N\O (stereo not drawn)	/	/	/	-6	4313	/	-32
CC(=O)c1sc(-c2ccccc2Cl)nc1C	10	10	5.5	-3	4363	4	-44
CCCSC1=N/C(=C\c2ccsc2)C(=O)S1	2	14	24	5	3313	14	1
NS(=O)(=O)c1ccc(CCNC(=O)c2cc3ccccc3s2)cc1	9	21	3.5	5	3525	1	-17
CC(=O)N1CCN(c2ccc(NCc3ccc(Br)o3)cc2)CC1	-1	0	4.9	/	3377	4	-21
CCOC(=O)c1sc(N(C)C(C)=O)nc1C	5	6	9.9	7	4129	8	-27
O=C(NN=Cc1oc(O)c2ccccc12)c1ccccc1O	-1	7	4.0	/	/	3	/
O=P(NS(=O)(=O)c1ccccc1)(Oc1ccccc1)Oc1ccccc1	4	13	8.3	-14	10145	13	-29
O=C(COc1ccccc1)Nc1ccc2oc(=O)ccc2c1	-6	-8	2.0	-10	5883	0	-16
O=C(NCc1ccccn1)c1nn(-c2ccccc2)c(=O)c2ccccc12	11	-1	2.4	-13	4217	4	-12
NC(=O)NN=Cc1cccc(C(F)(F)F)c1	12	6	3.0	/	/	3	/
NNC(=O)c1csc(-c2ncc(C(F)(F)F)cc2Cl)n1	14	7	2.6	-15	6057	6	/
O=C(C[n+]1ccccc1)NN=Cc1cccs1	7	-4	1.8	/	/	-2	/
Cc1cc(C(=O)NC(c2ccccc2)[C@]2(C)CC2C(C)C(=O)Nc2ccc3ccccc3c2)no1 (stereo partly drawn)	-7	0	3.6	/	/	-7	/
O=Nc1c(O)n(Cc2c(Cl)cccc2Cl)c2ccccc12	3	0	8.7	-17	2506	-5	-16
CCOC(=O)[C@@H]1[C@H]2COc3ccccc3[C@@H]2N2C(=O)N(c3ccc(C)cc3)C(=O)[C@]12C	1	1	2.6	-2	3713	1	15
CN1CCN(CCCNC(=O)c2cc3c(=O)n(C)c4ccccc4c3s2)CC1	3	12	-12	-7	6281	-2	-21
CC1CCCCC1NS(=O)(=O)c1ccc(-n2cnnn2)cc1 (stereo not drawn)	/	/	3.0	9	3409	8	-10
Cn1c(Cc2ccccc2)nnc1SCC(=O)N1CCN(c2ccccc2)CC1	/	/	1.4	-5	4148	8	-10
C=CCn1cnc2c(oc3ccccc32)c1=O	2	-4	9.8	8	3046	8	-11
CCn1c(SCC(=O)Nc2nc(C)c(C)s2)nnc1-c1cccnc1	9	-3	6.9	7	17323*	2	-12
CCCCCC(=O)NC(=S)Nc1ccc2oc(=O)ccc2c1	15	15	8.1	/	4619	12	-13
COc1ccc(-c2nn(-c3ccccc3)cc2C=NN=C(N)N)cc1OC	6	-1	-8.0	/	/	-22	/
[O-][n+]1c2ccccc2c2n1CCCN=C2c1ccc(Cl)cc1	9	15	8.3	2	4103	-13	-49
O=C(Nc1ccc2c(c1)CCC2)Nc1ccccc1F	7	10	3.9	3	4645	8	-73
CC(C)CCNC(=O)CCc1nnc2n(CCCOC(C)C)c(=O)c3ccccc3n12	7	5	4.5	-2	3718	11	-1
NC(N)=N/N=C/c1cn(-c2ccccc2)nc1-c1cccs1	/	/	/	18	4873	/	-8
COc1cc(OC)cc(-c2c(C#Cc3ccsc3)c3cc(-c4ccc5c(c4)OCCO5)ccc3n2C)c1	-1	-8	4.3	/	3991	-3	2
COc1ccc(CNc2ncccn2)cc1OC	10	2	4.1	10	4576	7	-31
Cc1ccc(C)c2[nH]c(=O)c(C(c3nnnn3C3CCCC3)N3CCOCC3)cc12 (stereo not drawn)	6	16	4.5	4	25756*	3	-22
Cc1noc(C)c1COc1ccccc1C(=O)N1CCN(S(=O)(=O)c2ccccc2Br)CC1	-5	3	4.3	/	3850	-4	-7
Cc1ccc2cccc(S(=O)(=O)N3CCCc4ccccc43)c2n1	13	-2	9.1	-2	4358	-1	-28
C=C(C)/C=N/NC(=S)Nc1ccc(S(=O)(=O)N2CCOCC2)cc1	/	/	/	-3	4821	/	-14
CC(C)CCNC(=O)C(c1ccc(O)cc1)N(C(=O)C1COc2ccccc2O1)c1cccc(O)c1 (stereo not drawn)	-12	3	-1.3	-3	3988	-6	-20
Cc1noc(C)c1C(=O)OCC(=O)N1CCN(S(=O)(=O)c2ccc3ccccc3c2)CC1	-9	-5	-2.7	-8	4537	-10	-12
COc1ccc(CCC(=O)OCC(=O)N2CCN(S(=O)(=O)c3ccc(C)cc3C)CC2)cc1	-6	9	2.0	/	5823	-6	-16
CCC1CCC2(CC1)NC(=O)N(CC(=O)NCc1ccc(Cl)cc1)C2=O (stereo not drawn)	18	9	-1.8	/	3860	1	-10
CC(C)c1cc(N2CCC(=O)NC2=O)cc(C(=O)O)c1O	0	-6	-0.5	-3	2524	6	-20
C=CCN(c1ccccc1)S(=O)(=O)c1cccc2cccnc12	15	4	9.7	4	4665	5	-7
Cc1ccc(NC(=O)NC(=O)COc2c(F)c(F)cc(F)c2F)c(C)c1	8	3	-1.1	/	4215	-1	-23
COc1ccc(C(CNC(=O)COc2ccccc2C#N)N2CCOCC2)cc1 (stereo not drawn)	/	/	3.1	-7	5257	1	2
Cc1cccn2c(=O)c3cc(C(=O)NCCN4CCOCC4)n(C)c3nc12	5	9	-2.4	-5	5347	1	-2

Three compounds from above, arranged by number of heavy atoms, lowest first.
SMILES	Mtb hypoxia rep	Mtb hypoxia rep growth	Sa RN4220 lethal	BJeLR viability	Bead autofluor	ugtP null kill	PrP 5UTR inh
C=C(C)/C=N/NC(=S)Nc1ccc(S(=O)(=O)N2CCOCC2)cc1	/	/	/	-3	4821	/	-14
CCC1CCC2(CC1)NC(=O)N(CC(=O)NCc1ccc(Cl)cc1)C2=O (stereo not drawn)	18	9	-1.8	/	3860	1	-10
COc1ccc(-c2nn(-c3ccccc3)cc2C=NN=C(N)N)cc1OC	6	-1	-8.0	/	/	-22	/

(cont.)
SMILES	Mtb hypoxia rep	Mtb hypoxia rep growth	Sa RN4220 lethal	BJeLR viability	Bead autofluor	ugtP null kill	PrP 5UTR inh
COc1cc2[nH]c3c(=O)n4c(nc3c2cc1OC)SCCC4	3	5	3.5	19	3905	3	-49
Cn1nc(C(C)(C)C)c([N+](=O)[O-])c1C(=O)NC1CCCCC1	12	-1	6.1	0	4183	17	-13
O=C(c1ccc(Cl)c(Cl)c1)N1CCC(=O)N(C(COCc2cccc(Cl)c2)Cc2ccccc2)CC1 (stereo not drawn)	3	9	-7.7	-8	3711	-19	13
Clc1ccc2nc(CN3CCCc4ccccc43)cn2c1	12	21	1.8	-2	4931	-5	-27
O=C(CN1CCCC1)Nc1c2c(cc3c1CCC3)CCC2	/	/	/	8	2031	/	-7
O=C1CCN(Cc2ccc(O)cc2)CCN1CCO	3	-1	3.6	-3	4245&5927	0	-7
O=C(Oc1ccc2c(c1)OCC2=O)c1ccc(Cl)cc1	1	1	6.6	1	4242	9	-29
O=C(NCc1ccccc1)C1CC(=O)N(C2CCCCC2)C1 (stereo not drawn)	-7	-1	-3.7	7	5663	-4	-9
Cn1nnc2cc(C(=O)N3CCN(c4ccccn4)CC3)ccc21	1	-2	4.7	0	3223	6	-11
CCCNC(=O)Cn1cccc1C(=O)c1ccccc1	10	5	8.9	-11	2529	9	-13
COc1cccc(C=NNC(=O)c2ccc3nc[nH]c3c2)c1	14	6	-1.9	/	/	4	/
Cc1c(C(c2cc3c(cc2Br)OCO3)c2c(C)n(C)n(-c3ccccc3)c2=O)c(=O)n(-c2ccccc2)n1C	-12	-4	3.3	6	10182	12	-13
CC(Sc1ncnc2c1cnn2-c1ccccc1)C(=O)Nc1ccc(N2CCOCC2)cc1 (stereo not drawn)	5	1	2.1	/	6283	18	11
CCOC(=O)C1(Cc2ccccc2C)CCCN(C(=O)c2ccc(CSC)o2)C1 (stereo not drawn)	10	5	11	-7	/	-1	-11
Cc1sc2nc(SCC(=O)NCCOCCO)nc(N)c2c1C	10	16	4.4	1	5855	-4	-12
N#CCCN(C(=O)CSc1ccc2c(c1)OCCO2)c1ccc(F)cc1	11	6	7.2	4	2546	2	-3
CCOC(=O)NN=C(C)c1ccc(C)o1	-6	-10	5.2	/	/	11	/
O=S1(=O)CCOC[C@H](c2ccccc2)N1Cc1cccc(Cl)c1	7	9	-3.9	-4	4566	0	-23
COc1cccc(NC(=O)CN(C)C(=O)c2ccc(OCC3CCCO3)cc2)c1 (stereo not drawn)	6	3	1.3	/	/	8	-5

In the list so far, 11 contain a Cl atom.
SMILES	Mtb hypoxia rep	Mtb hypoxia rep growth	Sa RN4220 lethal	BJeLR viability	Bead autofluor	ugtP null kill	PrP 5UTR inh
COc1cc(NC(=O)c2ccco2)c(OC)cc1NC(=O)Nc1cccc(Cl)c1	3	2	-7.9	-6	10412	17	-16
O=C(Nc1ccccc1Cl)C1Cc2ccccc2O/C1=N\O (stereo not drawn)	/	/	/	-6	4313	/	-32
CC(=O)c1sc(-c2ccccc2Cl)nc1C	10	10	5.5	-3	4363	4	-44
NNC(=O)c1csc(-c2ncc(C(F)(F)F)cc2Cl)n1	14	7	2.6	-15	6057	6	/
O=Nc1c(O)n(Cc2c(Cl)cccc2Cl)c2ccccc12	3	0	8.7	-17	2506	-5	-16
[O-][n+]1c2ccccc2c2n1CCCN=C2c1ccc(Cl)cc1	9	15	8.3	2	4103	-13	-49
CCC1CCC2(CC1)NC(=O)N(CC(=O)NCc1ccc(Cl)cc1)C2=O (stereo not drawn)	18	9	-1.8	/	3860	1	-10
O=C(c1ccc(Cl)c(Cl)c1)N1CCC(=O)N(C(COCc2cccc(Cl)c2)Cc2ccccc2)CC1 (stereo not drawn)	3	9	-7.7	-8	3711	-19	13
Clc1ccc2nc(CN3CCCc4ccccc43)cn2c1	12	21	1.8	-2	4931	-5	-27
O=C(Oc1ccc2c(c1)OCC2=O)c1ccc(Cl)cc1	1	1	6.6	1	4242	9	-29
O=S1(=O)CCOC[C@H](c2ccccc2)N1Cc1cccc(Cl)c1	7	9	-3.9	-4	4566	0	-23
